TAR Tat displ: TAR RNA-Tat peptide displacers, HIV-1, primary screen, biochemical, FRET, FAM/TAMRA-labeled Tat; HIV-1 TAR RNA, Tat peptide displacement FRET; active compounds read high; AID 1259389, 2018; 100,000 compounds, 0.6% hits; z-score (no concentration beside the values);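 further: score is relative to mean and SD of negative controls; some compounds called inactive have numbers as strong as hits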
CDC25B-CDK2 inh: primary biochemical HTRF screen for blockers of M-phase inducer phosphatase 2 binding to CDK2/cyclin A; HTRF CDC25B-CDK2/CyclinA binding, anti-His/anti-Flag; active compounds read high; z-score (concentration not given with the values); AID 1259370, 2018; 94,000 compounds, 0.72% hits; P30305+P24941;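 further: score is relative to mean and SD of negative controls; strong numbers were not always called active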
Starred values were filed as active, the others as inactive; . = not tested or not shown.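 How the source made its calls: active means z-score from 3 up in half or more of its runs; inactive means the rest.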

Values in the order: TAR Tat displ, CDC25B-CDK2 inh
- O=C(NCc1c(-n2cccc2)sc2c1CCCC2)Nc1ccc(F)c(Cl)c1
 : 1.6, -1.5
- O=C(Nc1noc2c1COc1ccccc1-2)N1CCN(c2ccccc2)CC1
 : 3.2, .
- O=C1c2cccnc2C(=O)N1Cc1ccc(S(=O)(=O)N2CC=C(c3ccccc3)CC2)s1
 : -0.87, .
- COC(=O)c1ccc2c(c1)C1C3CCC(C3)C1C(c1ccccc1)N2 (stereo not drawn)
 : ., -2
- CC1(C)CC(=O)c2cc(-c3nc(-c4cccc(Cl)c4)cs3)c(=O)[nH]c2C1
 : -5.4, -3.3
- O=C(NCCSCc1ccco1)c1cc(-c2cccnc2)nc2ccccc12
 : -0.37, .
- Cc1c(C(=O)N2CCCC2)c(S(=O)(=O)Nc2ccc(F)cc2F)c(C)n1C
 : 1.1, .
- Cc1cc(Sc2ccccc2N)n2ncnc2n1
 : -4, -0.46
- Cc1c(C)c(C)c(S(=O)(=O)Nc2ccc3c(c2)CCC(=O)N3)c(C)c1C
 : 0.27, .
- O=C(CSCCS(=O)(=O)c1ccc(Cl)cc1)N1CCOCC1
 : ., -1.5
- Cc1ccc(-c2cnnc(-n3nc(C)c4c3NC(=O)CC4c3cccs3)n2)cc1 (stereo not drawn)
 : 1.1, 0.06
- O=C(Nc1nccs1)C(NS(=O)(=O)c1cccs1)c1ccccc1 (stereo not drawn)
 : -1.5, .
- [O-]/[N+](=C\c1ccco1)C/C(=N/O)c1cccs1
 : ., -0.07
- COC(=O)C(C)Sc1nc2c(c(=O)n(C)c(=O)n2C)n1CCC(C)C (stereo not drawn)
 : ., -1.6
- C=C1c2ccccc2NC(=O)N1c1ccc(OC)cc1
 : 0.93, -0.84
- CCOc1ccc(N(C)S(=O)(=O)c2cnc[nH]2)cc1
 : 0.93, .
- CC(=O)NC1=NN(C(C)=O)C(c2ccc(-c3ccc(F)cc3)o2)S1 (stereo not drawn)
 : 0.25, -0.51
- Cc1cc2nnc(-c3ccc(C(F)(F)F)cc3)n2[nH]1
 : ., -1.6
- CCCN1CCN(CCCNC(=O)Cn2c3ccccc3c3nc(=O)cc(C)n32)CC1
 : -0.82, -1
- CC1Cc2cc(S(=O)(=O)N3CCN(c4ncccn4)CC3)ccc2N1C(=O)C1CC1 (stereo not drawn)
 : 0.35, .
- O=S(=O)(c1ccc(Oc2ccc(S(=O)(=O)N3CCCCC3)cc2)cc1)N1CCCCC1
 : -0.12, -2.5
- O=C(CN1CCOCC1)Nc1cccc2cccnc12
 : ., -1.1
- CC(=O)Oc1ccc2c(c1C(C)C)CCC1C(C)(C)CCC[C@]21C (stereo partly drawn)
 : -0.02, .
- COc1ccc(N2C(=O)c3cccnc3C2Nc2cc(F)ccc2F)cc1 (stereo not drawn)
 : 0.32, .
- Cc1ccc(S(=O)(=O)c2c[nH]c3cc(F)c(F)cc3c2=O)cc1
 : 1, -0.83
- CC12CN3CC(C)(CN(C1)C3c1cccc(Br)c1)C2=O (stereo not drawn)
 : 1.2, -1.8
- COc1ccc(-c2ccc(Nc3ccc(OC)c(Cl)c3)nn2)cc1
 : 2, -0.53
- CCOC(=O)c1cnc2c(C)cc(Cl)cc2c1Cl
 : -0.12, -1.6
- Cc1cc(C)n(-c2nc(C)c(C(=O)Nc3ccc(N(C)C)cc3)s2)n1
 : 1.6, 0.99
- O=C(COC(=O)c1ccccc1C(=O)c1ccc(-c2ccccc2)cc1)c1cccc([N+](=O)[O-])c1
 : ., -2.3
- O=C(c1ccccc1)N1CCN(c2ccnc3cc(Cl)ccc23)CC1
 : ., -2
- O=C(O)Cc1csc(NC(=O)CSc2nnnn2-c2ccc(O)cc2)n1
 : ., -1.1
- C=CCN(C(=O)c1cccc(Cl)c1)c1ccccc1C(=O)NCC(=O)OCC
 : ., -1.7
- COCCCN1CC(O)=C(c2nc3ccc(C)cc3[nH]2)C1=N
 : 3, -3.1
- COc1ccccc1-n1c(N)c(C(=O)Nc2ccccc2)sc1=S
 : 0.23, -0.14
- CCCCN1C2=NCCCN2c2ccccc21
 : ., -1.8
- Cc1ccc(C2Nc3ccc(C(=O)c4ccccc4)cc3NC3=C2C(=O)CC(C)(C)C3)o1 (stereo not drawn)
 : -2.6, -1.2
- C=CCNc1sc(S(=O)(=O)CC)nc1S(=O)(=O)c1ccc(Cl)cc1
 : 0.76, -0.45
- CCC(=O)N1c2ccc(S(=O)(=O)N3CCCC3)cc2CC1C (stereo not drawn)
 : -0.19, .
- O=C(Cn1cc(C(=O)c2ccc(F)cc2)c(=O)c2cc3c(cc21)OCO3)Nc1ccc(F)cc1
 : 0.17, -1.6
- CC1=C(c2cccc(Br)c2)S(=O)(=O)NC1=NC1CCCC1
 : -0.82, -8.7
- Nc1cc(C(F)(F)F)ccc1Oc1ccc(Cl)cc1Cl
 : ., -1.4
- CC(=O)N1N=C(c2cccs2)OC12CCCCC2
 : ., -2
- CCOC(=O)CCc1c(C)c2c(C)nn(-c3ccccc3)c2[nH]c1=O
 : 0.37, -0.73
- Cn1c(=O)c2[nH]c(-c3ccccc3O)nc2n(C)c1=O
 : 0.6, -2.8

Single records, from the list above.
`O=C(COC(=O)c1ccccc1C(=O)c1ccc(-c2ccccc2)cc1)c1cccc([N+](=O)[O-])c1` as listed: TAR Tat displ = .; CDC25B-CDK2 inh = -2.3
`O=C(c1ccccc1)N1CCN(c2ccnc3cc(Cl)ccc23)CC1` as listed: TAR Tat displ = .; CDC25B-CDK2 inh = -2
`CC(=O)Oc1ccc2c(c1C(C)C)CCC1C(C)(C)CCC[C@]21C` (stereo partly drawn) as listed: TAR Tat displ = -0.02; CDC25B-CDK2 inh = .

Next part.
Values in the order: TAR Tat displ, CDC25B-CDK2 inh
- FC(F)(F)c1ccccc1CN1CCN(C2CCCCC2)CC1
 : ., -2.8
- S=c1[nH]nc(-c2ccc3ccccc3n2)o1
 : 2.2, -2.8
- Cc1oc2c(c1CC(=O)O)C(=O)CC(C)(C)C2
 : ., -1.4
- O=C1COc2cc(S(=O)(=O)N3CCCCC3)c(Cl)cc2N1
 : 0.75, .
- COc1ccc(OC(=O)c2ccc(-c3ccccn3)s2)cc1
 : ., -3.1
- O=C1c2ccccc2C(=O)c2c1cccc2S(=O)(=O)Nc1cc(Cl)ccc1Cl
 : ., -2.1
- O=C1CC(c2ccccc2)CC(O)=C1C=Nc1cc(C(F)(F)F)cc(C(F)(F)F)c1 (stereo not drawn)
 : ., -1.5
- CC1CC(C)CN(CC2CCN(C(=O)Nc3ccc(Br)cc3)CC2)C1 (stereo not drawn)
 : 0.8, .
- CCN(Cc1nc(-c2cccc(C)c2)no1)S(=O)(=O)c1ccc(C)cc1
 : 0.51, -0.66
- Cc1ccc(N(C)S(=O)(=O)c2ccc3c(c2)NC(=O)CC(C)S3)cc1C (stereo not drawn)
 : 1.2, .
- O=C(NCc1ccc2c(c1)OCO2)c1ccc2snnc2c1
 : ., -3.8
- Fc1cccc(Cl)c1CSC(=S)N1CCSCC1
 : ., 0.81
- CC1C(=O)N2CCCc3cc(S(=O)(=O)NCc4ccc5c(c4)OCO5)cc1c32 (stereo not drawn)
 : 0.64, .
- Cc1cccc(C2CC(=O)c3cnn(-c4nc(C)cc(C)n4)c3C2)c1 (stereo not drawn)
 : -3.5, -0.58
- COc1ccc(NC(=O)Nc2c(SC)nsc2SC)cc1
 : -0.29, -0.37
- CC(C)c1ccc(Nc2c(-c3ccccc3)nc3cnccn23)cc1
 : ., -0.45
- O=S(=O)(CCC1=NS(=O)(=O)c2cc(S(=O)(=O)N3CCCCC3)ccc2N1)c1ccccc1
 : -1.2, .
- CC1(C)CC(=O)C2=C(C1)Nc1[nH]c(=O)[nH]c(=O)c1C2c1ccc(F)cc1 (stereo not drawn)
 : ., -0.84
- CC(C)CCNC(=O)C1c2c(n(C)c3ccccc23)SCC(=O)N1Cc1cccs1 (stereo not drawn)
 : 0.78, .
- COC(=O)C(CC(C)C)NS(=O)(=O)c1ccc(-c2nnc(SC)n2C)s1 (stereo not drawn)
 : ., -1.3
- CCCC1c2ccc(C)n2CCN1C(=O)Nc1ccc(F)c(Cl)c1 (stereo not drawn)
 : -12, 1.3
- NC(=O)c1nc(-c2c(F)cccc2Cl)nc2c1[nH]c(=O)n2C1CCCCC1
 : 1.6, .
- Cn1c(=O)c(C(=O)Nc2ccc(F)cc2)nn(-c2ccc(Cl)cc2)c1=O
 : 0.9, .
- CCC(C)c1ccccc1NC(=O)c1cc2c(C)cc(C)cc2[nH]1 (stereo not drawn)
 : ., -2.1
- Cc1oc(-c2ccc(F)cc2)cc1-c1nn2c(-c3ccoc3C)nnc2s1
 : 18*, 1.8
- N=C1C(c2nc3ccccc3s2)=C(O)CN1C1CCCC1
 : 1.6, -2.4
- Cc1nn(C)c(NC(=O)Nc2cccc(F)c2)c1C1=CCCCC1
 : -0.08, -0.93
- COc1cc2c(cc1OC)n(CC(=O)NCCN1CCN(C)CC1)n1c(C)cc(=O)nc21
 : 2, -1.8
- Cc1ccc(C(=O)Nc2cnc3sc4c(n3c2=O)CCCC4)cc1
 : -2.2, 0.79
- CCOC(=O)N1CCN(c2ncnc3[nH]ccc23)CC1
 : 0.04, -0.13

Some of these compounds in order of molecular weight, highest first.
Values in the order: TAR Tat displ, CDC25B-CDK2 inh
- COc1cc2c(cc1OC)n(CC(=O)NCCN1CCN(C)CC1)n1c(C)cc(=O)nc21
 : 2, -1.8
- COC(=O)C(CC(C)C)NS(=O)(=O)c1ccc(-c2nnc(SC)n2C)s1 (stereo not drawn)
 : ., -1.3
- Cc1oc(-c2ccc(F)cc2)cc1-c1nn2c(-c3ccoc3C)nnc2s1
 : 18*, 1.8
- CC(C)c1ccc(Nc2c(-c3ccccc3)nc3cnccn23)cc1
 : ., -0.45
- CCOC(=O)N1CCN(c2ncnc3[nH]ccc23)CC1
 : 0.04, -0.13

Continued.
Values in the order: TAR Tat displ, CDC25B-CDK2 inh
- Cc1cc(C(C)(C)C)c(O)c(C)c1CC1=NCCN1
 : 1.8, -0.35
- O=S(=O)(c1ccc(Cl)cc1)N1CCCC(c2nc(-c3cccs3)no2)C1 (stereo not drawn)
 : 0.71, .
- Cc1noc(/C=C/c2ccc3c(c2)OCO3)c1[N+](=O)[O-]
 : -9.3, -0.45
- CS(=O)(=O)Nc1ccc(/C(N)=N/OC(=O)c2cccs2)cc1
 : ., 0.4
- O=c1cc(COc2ccc(Cl)cc2)nc2sccn12
 : 3.6, -1.7
- CC(C)(C)c1nc(N=C(N)N)sc1Br
 : ., 0.04
- O=C(NC1CCCCCC1)c1cc2c(s1)-c1ccccc1S(=O)(=O)C2
 : ., -3
- O=[N+]([O-])c1ccc(C(N2CCOCC2)N2CCOCC2)cc1
 : ., -2.2
- Cc1ccc(CN2CNc3c(-c4cccc(Cl)c4)c(C)nn3C2)cc1
 : -0.27, -1.6
- COc1ccc(Nc2nc(N(C)C)nc3c2cnn3C)cc1
 : 0.41, .
- Cc1ccc2onc(CNC(=O)N3C(C)CCCC3C)c2c1 (stereo not drawn)
 : 1.8, .
- O=C(CCCn1c(=O)c2cccn2c2ccccc21)NC1CCCC1
 : 1, .
- CS(=O)(=O)N1N=C(c2c(-c3ccccc3)c3cc(Cl)ccc3[nH]c2=O)CC1c1ccccc1F (stereo not drawn)
 : 2, -1.6
- CCOc1cc(-c2ccc(F)cc2)nc2ccc(C(=O)O)cc12
 : -0.75, -1.8
- CCOC(=O)C1=C(C)NC2=C(C(=O)c3ccccc32)C1c1cc(Br)c(OC)c(OC)c1 (stereo not drawn)
 : 1, -1.6
- CN(Cc1ccco1)S(=O)(=O)c1nnc(NC(=O)c2cccs2)s1
 : 3.6, -1.4
- COc1ccc(-c2csc3ncnc(NCCc4ccc(S(N)(=O)=O)cc4)c23)cc1
 : 1.5, .
- COC(=O)c1cc(S(=O)(=O)N2CCC(c3ccccc3)C2)c[nH]1 (stereo not drawn)
 : -0.68, .
- CCCN1C(=O)c2cc(-c3cccs3)nn2CC1(C)C(=O)NC1CCCCC1 (stereo not drawn)
 : 0.87, .
- Cc1cc2nnc(SCC(=O)Nc3nccs3)n2c2ccccc12
 : 0.7, -1.3
- O=C(c1ccc(COc2ccccc2Cl)o1)N1CCCC1
 : 3.7, -0.4
- COc1ccc2oc(=O)c(C(=O)C[n+]3ccc(C)cc3)cc2c1
 : ., -0.94
- CCCCN1CN(Cc2ccco2)CNC1=S
 : ., -0.88
- COc1ccc2c(c1)OC/C(=C\c1ccc(OC)c(O)c1)C2=O
 : 19, .
- Cn1c(=O)oc2cc(S(=O)(=O)N3CCC(C(=O)N4CCCCC4)CC3)ccc21
 : 1.6, 1.4
- COC(=O)COc1nsnc1N1CCOCC1
 : ., -0.07
- O=C(Cn1c(=O)sc2ccccc21)N1CCN(C(=O)c2ccco2)CC1
 : 0.4, -0.92
- O=C(CCc1nnc2ccc(N3CCOCC3)nn12)Nc1ccc(F)c(F)c1
 : 0.55, .
- COc1cccc(/C=C/c2nc(C#N)c(N3CC(C)OC(C)C3)o2)c1 (stereo not drawn)
 : 1.1, 1.4
- COc1ccc(NS(=O)(=O)c2c(C)nc3sc4ccccc4n3c2=O)cc1
 : 2.1, -1.3
- O=C(CSc1ncnc2c1sc1nc(N3CCOCC3)c3c(c12)CCCC3)N1CCCCC1
 : 1.8, 2.4
- O=C(Nc1ccc2c(c1)OCCO2)c1cn2c3c(ccc(Cl)c3c1=O)OCC2
 : 0.79, .
- CC(C)OCCCNC(=O)c1ccc(N2CCSc3ncccc32)s1
 : 0.4, .
- CC(C)CCNC(=O)c1cc(S(=O)(=O)N2CCc3ccccc32)cn1C
 : 1.2, -1.1
- Cc1nnc2sc(SCc3ccccc3F)nn2c1=O
 : 0.38, .

Screening results (PubChem BioAssay)
